# Assay outcomes as filed in PubChem BioAssay.
# Rce1 inh = blocks yeast Ras-converting enzyme | actives 0.27% (n = 290,000) | AID 2563 | yeast membranes, quenched prenylated peptide cleavage fluorescence | Q03530 | calls only;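 active means fall in fluorescence gain of 50% or more versus controls, with final raw signal at or below 3038400; inconclusive means same 50% fall but final raw signal above 3038400; inactive means fall in fluorescence gain under 50%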;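 further: plate controls were neutral control wells for no effect and wells lacking membranes for full effect; tested at 10 µM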
# Target sequence (Q03530 whole entry, looked up): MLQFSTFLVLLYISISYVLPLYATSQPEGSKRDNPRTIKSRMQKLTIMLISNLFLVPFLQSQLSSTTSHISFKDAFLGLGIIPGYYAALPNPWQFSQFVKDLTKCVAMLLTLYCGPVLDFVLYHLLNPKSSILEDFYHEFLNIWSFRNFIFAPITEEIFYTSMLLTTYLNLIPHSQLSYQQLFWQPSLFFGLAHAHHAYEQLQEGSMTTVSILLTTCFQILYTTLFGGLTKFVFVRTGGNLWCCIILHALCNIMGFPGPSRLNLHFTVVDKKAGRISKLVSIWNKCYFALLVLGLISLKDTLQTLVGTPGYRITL
# eIF4H FP inh = inhibitors of RNA binding by human eIF4H; inhibition, % at 35 µM; Q15056; eIF4H fluorescence polarization binding assay; actives 0.94% (n = 290,000);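 active means 50% or more with normal probe brightness, or confirmed in later tests; inconclusive means above 50% with abnormal brightness, or retests that disagree; inactive means below 50% or failed in later tests; about a fifth of its hits are not listed in these tables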;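 further: calls also rest on retests at 20 µM and on dose response follow-up; 0% = protein and probe with vehicle and 100% = probe without protein; strong numbers were not always called active; many hits fall short of the cut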
# MT1-MMP act inh = blocks activation of human MT1-MMP; HT1080 RFP-PRO-GFP cells, GFP/RFP ratio fluorescence, overnight; percent of plate control window, DMSO zero; GFP/RFP ratio change, % at 20 µM; actives 0.061% (n = 360,000);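 active means GFP/RFP ratio change of at least 30% with cell ATP level not reduced by more than half and red fluorescence within 50% of control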; further: strong numbers were not always called active
#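 Material: RFP-PRO-GFP reporter HT1080 cells. Dosing: single-point 20 µM compound, 1% DMSO. Controls: DMSO and RFP-L50D-GFP cell wells. Timing: cells overnight before dosing, compound overnight, 37 °C, 5% CO2. Measure: GFP/RFP fluorescence ratio.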
# UUG fidelity = alters start codon recognition fidelity in yeast; S. cerevisiae UUG-firefly luciferase reporter, luminescence/redox ratio; activity score, % at 18.7 µM; actives 0.13% (n = 350,000); AID 602363;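 active means replicate mean at a twofold rise or more, about +100% in these data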;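 further: firefly luciferase made from a UUG start codon reports start codon fidelity; reporter light over untreated wells divided by growth signal over untreated wells; some hits fall short of that in this replicate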
# CSC inhib = cancer stem cell inhibition | cancer stem cell-like cells viability, luminescence | inhibition, % at 7.5 µM | actives 1.1% (n = 300,000) | AID 2717;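 active means mean at 75% or more and at least half the replicates too; inconclusive means mean and replicates disagree; tested in HMLE shEcad cells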;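 further: 0% = median of negative and 100% = median of positive control wells; the first replicate is given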
# Env fusion inh = inhibitors of HIV Env-mediated cell fusion | HeLa-JRFL Env/CEM21 cell fusion, luciferase | inhibition, % at 12.3 µM | actives 1.1% (n = 360,000) | AID 651610;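 active means mean replicate inhibition score of at least 50 and every replicate individually at or above 50; inconclusive means only one of the two criteria met; inactive means mean below 50 and not all replicates reaching 50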;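 further: 0% = plate neutral controls and 100% = maraviroc near 300 nM; one replicate is shown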
# PABP polyA inh = blocks human PABP binding to poly(A) RNA; P11940; fluorescence polarization; inhibition, % at 35 µM; actives 1% (n = 290,000);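 active means 50% or more with normal probe brightness, or confirmed in later tests; inconclusive means above 50% with abnormal brightness, or retests that disagree; inactive means below 50% or failed in later tests; about a fifth of its hits are not listed in these tables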;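 further: calls also rest on retests at 20 µM and on dose response follow-up; controls were probe without protein and protein plus probe with vehicle; some compounds called inactive have numbers as strong as hits; many hits fall short of the cut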
# eIF4H FP inh retest = second read-out of eIF4H FP inh, no call of its own (marks repeat the call); inhibition, %; compound at 20 µM; confirmation average;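 mean of two retest wells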
# PABP polyA inh retest = recorded beside PABP polyA inh, whose call it bears; inhibition, %; compound at 20 µM; confirmation repeats;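 mean of two retest wells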
# MT1-MMP act inh RFP = also measured in MT1-MMP act inh; calls as there; RFP signal change, %; measured here: RFP expression control read;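 0 = vehicle wells; hits needed this value within 50% of zero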
# * marks the source's active call; other numbers are inactive results; i = inactive; ? = inconclusive; . = no result given. A portion of the library, so the mix of outcomes need not match the whole.
SMILES,Rce1 inh,eIF4H FP inh,MT1-MMP act inh,MT1-MMP act inh RFP,UUG fidelity,CSC inhib,Env fusion inh,PABP polyA inh,others
COCCCNC(=S)N1CCN(c2nc(-c3ccc(Cl)cc3)cs2)CC1,.,.,-6,-25,-13,.,42,.,
CC(OC(=O)c1ccc(C#N)cc1)C(=O)Nc1ccc(Cl)cn1 (stereo not given),.,.,-1,4,-8,.,-4,.,
Cc1ccc(C(=O)CCCn2nnc(-c3cccnc3)n2)cc1C,i,1,-1,5,-22,3,-20,5,
O=C(COc1ccc(F)cc1)N1CCC(Cc2ccccc2)CC1,i,-5,2,1,10,0,.,2,
COc1ccc(/C=N/NC(=O)c2nc(-c3ccccc3)cc(-c3ccccc3)n2)cc1O,i,-4,0,1,.,.,-49,0,
CCOC(=O)c1ccc(NS(=O)C23CC4CC(CC(C4)C2)C3)cc1 (stereo not given),i,6,1,5,-19,2,-52,12,
COc1ccc(N2CCc3c(C)nc(SC)nc32)cc1,i,-8,-1,-6,-4,-4,-23,-6,
CCCCCCCC(=O)NC(Nc1ccccc1OC)C(Cl)(Cl)Cl (stereo not given),i,-10,-5,-17,-17,17,44,2,
CCOc1cc(C#N)ccc1OCC(=O)N1CCN(C(=O)c2cccs2)CC1,.,.,-2,-3,-14,.,3,.,
CCOC(=O)c1sc(NC(=O)CSc2nnc(-c3ccco3)o2)c(C(=O)OCC)c1C,i,-7,-8,-4,-19,-3,.,-11,
O=C(O)c1ccc(CNCc2ccccc2F)cc1,i,2,-4,1,-19,-8,12,0,
CCOCCCNC(=O)c1ccccc1Br,i,-11,2,5,-34,-5,-105,4,
CCN(CC)S(=O)(=O)c1ccc(OC)c(NC(=O)CSc2ccccc2)c1,i,-13,-1,1,-3,19,3,0,
CCOC(=O)CCCNC(=O)CCNC(=O)c1ccc(OCC(C)C)cc1,i,2,-1,0,.,-10,-22,0,
COc1ccc(N2C(=O)C(CC(=O)Nc3ccccc3)N(CCc3ccc(OC)c(OC)c3)C2=O)cc1 (stereo not given),.,-1,1,0,.,-13,19,-1,
CC(OC(=O)c1ccc2c(c1)OCO2)C(=O)NC1CCCCC1C (stereo not given),.,.,2,-9,-20,.,-3,.,
Cn1cccc1CC(=O)N/N=C/c1cc([N+](=O)[O-])ccc1Cl,i,23,1,3,-14,-10,-84,20,
CCCCCCCCNC(=O)CCNC(=O)c1ccc(C(C)(C)C)cc1,i,-2,-7,-6,1,-4,.,-4,
O=C(NCc1ccc2c(c1)OCO2)C1CCCN1C(=O)Nc1ccccc1 (stereo not given),i,0,-1,3,-14,-3,.,0,
CC(=O)Oc1ccc2oc3c(c2c1)C(=O)CCC3,i,5,-5,-3,-16,-25,-34,2,
COc1ccc(C(=O)Nc2ccc(CN3CCOCC3)cc2)cc1,i,0,-1,-7,4,-10,.,-6,
O=C(COc1ccc(Cl)cc1Cl)NC(=O)N1CCOCC1,i,-4,3,3,-5,-12,5,-1,
Cc1ccc(Cl)cc1NC(=O)C1CCCN(S(C)(=O)=O)C1 (stereo not given),i,-6,-2,0,-8,-18,-11,-7,
Cc1onc(-c2ccccc2)c1NC(=O)Nc1c(-c2ccccc2)noc1C,i,1,0,3,.,4,8,68,eIF4H FP inh retest=2;PABP polyA inh retest=12
CCCCNC(=O)C1(C)CCCCN1C(=O)c1ccc(C)c(F)c1 (stereo not given),.,.,0,3,-10,.,-5,.,
Cc1ccc(CNC(=O)Cn2c([N+](=O)[O-])cnc2C)cc1,i,0,-2,0,8,.,.,16,
COc1cc(/C=N/NC(=O)CCC(=O)Nc2ccc(Br)cc2)ccc1O,i,-6,5,1,4,-7,1,-1,
CC(NC(=O)C(c1ccccc1)c1ccccc1)c1ccc(S(N)(=O)=O)cc1 (stereo not given),i,0,2,4,-2,5,13,0,
O=C(CN1C(=O)CSC1=O)N1CCCCC1,i,-6,0,4,.,-6,.,5,
CS(=O)(=O)N1CCN(c2ccc(NC(=O)c3ccccc3)cc2)CC1,i,2,-3,-1,-28,-9,6,-1,
CC(=O)c1ccc(NC(=O)Cn2c(=O)oc3ccccc32)cc1,i,0,0,4,-9,-20,8,-3,
c1ccc(-c2nnc3n2-c2ccccc2SC3)cc1,i,-2,4,5,.,.,2,6,
Cc1c(N/C(=N/S(=O)(=O)c2ccccc2)c2ccc(Cl)cc2)c(=O)n(-c2ccccc2)n1C,i,-7,5,5,-8,10,-7,-8,
O=Cc1ccc(Oc2ccc(F)cc2)nc1,i,3,-2,1,-19,.,-4,13,
COc1ccc2sc(-c3ccc(S(C)(=O)=O)cc3)c(C(=O)NCCCN3CCCC3=O)c2c1,.,.,-1,-3,-5,.,-5,.,
Fc1ccc(Br)cc1/C=N/N1CCN(c2ccccc2)CC1,i,5,-1,0,15,-7,6,7,
O=C(CSC1CC(=O)N(c2ccc(C(=O)O)cc2)C1=O)Nc1ccc2ccccc2c1 (stereo not given),i,-4,-2,3,.,1,4,-1,
COc1cc(-c2nnc(SCC(=O)/C(C#N)=C(\C)N)o2)cc(OC)c1OC,i,1,17,4,0,-6,-29,-4,
CCOc1nc(-c2ccccc2)ccc1-c1noc(-c2cccs2)n1,i,-12,1,1,-19,19,-9,14,
COc1ccccc1OCC(=O)Nc1cc(C(F)(F)F)ccc1-n1cncn1,i,.,2,-3,1,-6,.,.,
O=S(=O)(c1ccc2c(c1)OCCO2)N1CCC(c2nc3ccccc3[nH]2)CC1,i,2,-6,-10,.,-3,2,-1,
CCNC(=O)C12CCC(C)(c3nc4cc(C)c(C)cc4nc31)C2(C)C (stereo not given),i,4,-3,1,-13,-8,19,8,
NC(=O)Cc1ccc(C(=O)CSc2nnc(-c3ccncc3)n2C2CC2)s1,.,.,-3,-4,4,-9,2,.,
CC(=O)Nc1ccccc1N(CC(O)Cn1c2ccccc2c2ccccc21)S(=O)(=O)c1ccc(C)cc1 (stereo not given),i,-7,-34,-26,.,43,24,-6,
O=C(Nc1cccc2ncccc12)C12CC3CC(CC(C3)C1)C2,i,-6,10,4,-20,15,23,-8,
Cc1nc2cc(NC(=O)c3ccco3)ccc2n1C,.,-7,-2,-1,-37,2,-8,-14,
Cc1cc(NC(=O)C(=O)c2cn(C)c3ccccc23)no1,i,-7,0,2,.,-11,1,11,
Cc1cc(Br)cn2c(CC(C)(C)C)c(C3CCCCC3)nc12,.,.,1,-1,3,.,-16,.,
Cc1ccccc1OCC(=O)NNC(=S)NC(=O)c1ccco1,i,21,17,5,-31,.,6,-1,
CC(=O)c1cc(NC(=O)c2cccc(C(F)(F)F)c2)c(=O)oc1/C=C/N(C)C,i,?,-8,1,-13,-1,-33,?,
Cc1cc(OCC(=O)N2CCc3ccccc3C2)c(C)cc1Br,i,-9,1,1,-15,-6,-3,-8,
Cn1cccc1C(=O)NC(=O)COC(=O)c1ccc(S(C)(=O)=O)cc1,.,.,3,2,.,-26,-23,.,
COc1ccc(C2CC(C(F)(F)F)n3nc(C(=O)N(C)Cc4cn(C)nc4C)c(Cl)c3N2)cc1 (stereo not given),i,-5,0,-5,7,-2,.,-5,
O=C(OCc1nnc(-c2ccccc2)o1)c1ccccc1,i,-6,2,-1,-5,-7,8,3,
COc1ccc(Oc2cc(Cl)nc(N)n2)cc1,i,3,-3,1,.,-15,-6,2,
COc1ccc(C2CC(=O)Nc3sc(=N)c4c(N)c(C#N)c(N)nc4c32)cc1OC (stereo not given),i,3,-7,-1,-16,2,-11,14,
COC(CNC(=O)c1ccc(CS(=O)(=O)c2c(Cl)cccc2Cl)o1)OC,i,-2,-4,0,-2,-12,3,4,
CCN1c2ccc(S(=O)(=O)N3CCOCC3)cc2N(Cc2ccc(OC)cc2)C1C (stereo not given),i,7,0,4,.,8,4,-1,
COc1cccc(CNC(=O)C2CCN(Cc3cnn(-c4ccccc4)c3-n3cccc3)CC2)c1,i,-11,1,-5,7,.,.,-4,
Cc1ccc(S(=O)(=O)N2CCC(=O)N(CCOCc3ccc(C(F)(F)F)cc3)CC2)cc1,i,5,5,-29,-13,-6,69*,16,

# Additional structures:
SMILES,Rce1 inh,eIF4H FP inh,MT1-MMP act inh,MT1-MMP act inh RFP,UUG fidelity,CSC inhib,Env fusion inh,PABP polyA inh,others
Cc1cnc(C(=O)NC2CCSc3ccccc32)cn1 (stereo not given),i,-4,-2,6,-5,0,-13,2,
CC(OC(=O)Cc1n[nH]c(=O)c2ccccc12)C(=O)Nc1ccc(F)cc1Cl (stereo not given),i,.,1,1,-5,.,7,.,
COc1cc2c(c(NC(C)=O)c1)N(C(C)=O)CCC2,.,.,0,6,-5,.,5,.,
COC(=O)C1=C(C)NC(=O)NC1c1ccc([N+](=O)[O-])o1 (stereo not given),i,76,-10,1,1,4,4,-11,eIF4H FP inh retest=-7;PABP polyA inh retest=10
CCOc1ccc(-n2c(C)nnc2SCC(=O)N(CC)CC)cc1,i,-3,4,4,-4,25,-31,-4,
COc1ccc(-c2nnc(SCc3ccc(C(=O)O)cc3)n2N)cc1,i,5,4,6,-37,-12,-1,7,
CCOc1ccc(OCCn2c(S(=O)(=O)O)nc3c(N)ncnc32)cc1,i,3,3,1,-7,-3,.,-5,
Cc1ccc(NC(=O)COC(=O)/C=C/c2ccc(Br)o2)cc1S(=O)(=O)N(C)C,i,-1,0,6,.,-7,6,5,
CN1CCN(c2ccc(CNC(=O)C3(C)Cc4c(-c5ccccc5)ccnc4O3)cc2)CC1 (stereo not given),.,.,0,1,-18,.,-3,.,
COCCN(C(=O)COC(=O)Cc1ccc(Cl)cc1Cl)c1c(N)n(Cc2ccccc2)c(=O)[nH]c1=O,i,.,-4,-2,-3,-11,-2,.,
NC(=O)c1c(NC(=O)COC(=O)CSc2nnc(-c3ccc(Cl)cc3)o2)sc2c1CCC2,.,24,-5,5,-13,-2,-23,22,
CCCCN(CCCC)S(=O)(=O)c1ccc(C(=O)Nc2nnc(COC)o2)cc1,i,3,-11,-11,-15,22,.,4,
CCOC(=O)/C(=C/C=C1\Sc2ccccc2N1CC)C(C)=O,i,?,-103,1,15,8,.,0,
O=C(CCN=C1NS(=O)(=O)c2ccccc21)OCc1nnc(-c2ccccc2)o1,i,.,2,4,-11,1,-13,.,
CCCN(CCC)C(=O)CSc1nc2n[nH]c(C)c2c(=N)n1-c1ccc(OCC)cc1,i,3,6,-3,-10,-17,.,-3,
O=C1CCCN1CCCNc1ccc2nnc(CCC(=O)N3CCN(c4ccc(F)cc4)CC3)n2n1,i,-8,5,3,-9,-18,6,1,
CCOc1ccccc1C(=O)NCC(=O)Nc1ccc(-c2ccccc2)cc1,i,-21,-2,-2,-6,0,9,-3,
CC(=O)c1cccc(NC(=O)c2ccc(NC(=O)CC3SC(N4CCCCC4)=NC3=O)cc2)c1 (stereo not given),i,2,-2,0,-9,-6,.,3,

# Reprinted at random: 3 compounds from above, in no set order.
SMILES,Rce1 inh,eIF4H FP inh,MT1-MMP act inh,MT1-MMP act inh RFP,UUG fidelity,CSC inhib,Env fusion inh,PABP polyA inh,others
Cc1cnc(C(=O)NC2CCSc3ccccc32)cn1 (stereo not given),i,-4,-2,6,-5,0,-13,2,
Cc1cc(Br)cn2c(CC(C)(C)C)c(C3CCCCC3)nc12,.,.,1,-1,3,.,-16,.,
Fc1ccc(Br)cc1/C=N/N1CCN(c2ccccc2)CC1,i,5,-1,0,15,-7,6,7,
